Rango-impB inh = prevents formation of the Rango-importin beta complex; Rango CFP/YFP FRET sensor + importin beta, 45 min; Potency, µM (highest dose often 92.2 µM), without a hit: at the highest dose inhibition of complex formation; 340,000 tested, 0.031% active; active = rising FRET ratio curve, often small or poorly fitted; inconclusive = mostly compound fluorescence or quenching in the first reads; inactive = flat curves in all reads;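 also: potency is read from the fitted curve at half-maximal effect; 0% = DMSO wells and 100% = buffer wells lacking importin beta; nearly all actives have a fitted effect of over 15% in size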
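Inhibition scored from the CFP 486 nm/YFP 530 nm FRET ratio 45 min after adding 0.125 microM importin beta to 50 nM Rango biosensor preincubated 5 min with compound (room temperature, PBS with DTT, Tween-20, BSA). No-importin wells as positive control.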
Rango dissoc inh = prevents RanGTP from dissociating the Rango-importin beta complex; O95149+P62826; Biochemical FRET Rango-importin beta, RanGTP-induced dissociation; Potency, µM (highest dose often 46.1 µM), for inactives: top-dose activity change, negative = inhibition; 340,000 tested, 0.071% active; active means falling FRET ratio curve, often poorly fitted, with flat reads before Ran was added; inconclusive means other falling curves, or compound fluorescence or quenching; inactive means flat or rising ratio curve;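 also: potency is read from the fitted curve at half-maximal effect; % of control where 0% means no effect; nearly all actives have a fitted effect of over 45% in size; -100% = wells without RanGTP and RCC1; the record marks most hits as doubtful in a second field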
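Rango (0.1 uM)–importin beta (0.25 uM) complex; RanGTP-RCC1 trigger; 45 min RT; CFP/YFP FRET read.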
GLA inh pH 4.5 = inhibitors of human alpha-galactosidase A at pH 4.5 | P06280 | purified enzyme, 4-MU-alpha-Gal fluorescence, pH 4.5 | activity change, negative = inhibition, % at 105 µM | 230,000 tested, under 10 active; inconclusive = small, poorly fitted or top-dose-only inhibition, or a rising curve; inactive = flat fitted curve, though single readings scatter; no compound was filed as active;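 also: 0% = full activity with enzyme and -100% = basal without enzyme; dose as in the result columns while the protocol names 77 µM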
Target sequence (P06280 whole entry, looked up): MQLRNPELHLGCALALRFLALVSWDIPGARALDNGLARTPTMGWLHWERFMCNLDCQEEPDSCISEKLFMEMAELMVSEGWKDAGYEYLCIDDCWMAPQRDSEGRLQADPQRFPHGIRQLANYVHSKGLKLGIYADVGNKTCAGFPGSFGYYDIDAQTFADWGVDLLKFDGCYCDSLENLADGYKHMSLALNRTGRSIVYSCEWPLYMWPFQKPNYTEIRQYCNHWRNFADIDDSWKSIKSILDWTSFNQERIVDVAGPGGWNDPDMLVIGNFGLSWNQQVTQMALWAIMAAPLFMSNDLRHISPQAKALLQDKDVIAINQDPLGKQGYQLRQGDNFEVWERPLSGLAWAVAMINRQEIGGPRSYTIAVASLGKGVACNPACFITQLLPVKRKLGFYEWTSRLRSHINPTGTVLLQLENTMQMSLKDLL
miR-21 FLuc = raises the signal of a miR-21 reporter | Potency, µM (doses to about 38.3 µM), for the others: top-dose reporter change, positive = more light | HeLa miR-21 FLuc reporter, luciferase, 48 h | 340,000 tested, under 10 active; active = well fitted rising curve with a large enough effect; inconclusive = small, poorly fitted or top-dose-only effect; inactive = no such curve, though single readings can be large or run the other way;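 also: % of control where 0% means no effect; miR-21 action dims this reporter so a rising signal means less miR-21 action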
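HeLa miR-21-FLuc reporter line, endogenous miR-21; 2000 cells/well in DMEM/10% FBS; compound titration up to ~40uM final, 48 h, 37 degree Celsius; luciferase detection reagent, 15 min lysis, CCD luminescence.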
* marks the source's active call; other numbers are inactive results; ? = inconclusive; · = no result given; & = joins results of further samples.

SMILES	Rango-impB inh	Rango dissoc inh	GLA inh pH 4.5	miR-21 FLuc
Cc1cc(NCCN2CCCCC2)n2c(nc3ccccc32)c1C#N	·	·	17	-10%
CCN(CC(=O)NCc1cccs1)C(=O)Cc1ccc(Cl)c(Cl)c1	0.2%	8%	·	·
O=C(c1ccco1)N1CCN(C(c2ccccc2Cl)c2nnnn2Cc2ccco2)CC1 (configuration not stated)	2.0%	-13%	-5	6%
O=C(CN1CCOCC1)Nc1ccc2c(c1)OC(F)(F)O2	-0.1%	-15%	-6	-3%
CC(=O)N1CCC2(CC1)CC(=O)c1cc(OCC(=O)NCc3ccc(C)cc3)ccc1O2	-0.7%	-6%	19	-1%
CC1CCCC(C)N1C(=O)COC(=O)CCC(=O)c1ccc(F)cc1 (configuration not stated)	-1.2%	-8%	·	·
COc1ccc(C(C)=O)cc1COC(=O)C(CO)NS(=O)(=O)c1ccc(Br)cc1 (configuration not stated)	1.6%	-6%	-17	-4%
COc1ccc2oc(C)c(C(=O)c3ccc([N+](=O)[O-])cc3)c2c1	-1.0%	9%	-4	-19%
CCCOc1ccc(-c2nnn(CC(=O)c3c[nH]c4ccccc34)n2)cc1	0.0%	0%	-1	-1%
O=c1cc(-c2cccc(F)c2)[nH]c2ccccc12	-1.3%	-2%	-5&-3	18%
Cc1cc(C)nc(/N=C(/NC(=O)Nc2ccc(Cl)c(Cl)c2)Nc2ccccc2)n1	·	·	6	-4%
CCn1cnc2sc(C(=O)N(Cc3ccc(N(C)C)cc3)Cc3ccco3)c(C)c2c1=O	-1.4%	-8%	-9	5%
Cn1c(=O)c2c(-c3ccccc3)n(-c3ccccc3O)cc2n(C)c1=O	2.7%	1%	-1	-12%
O=C(CC1C[C@H](C(=O)N2CCCCC2)[C@@]2(CCc3ccccc3)c3[nH]c4ccccc4c3CCN2C1=O)NCc1cccc(C(F)(F)F)c1 (some centres not stated)	-2.1%	1%	·	·
O=S(=O)(Nc1c(O)ccc2ccccc12)c1ccccc1	-0.6%	1%	·	·
CC(C)Cc1nnc(NC(=O)CSc2ccccn2)s1	-6.4%	-11%	2	-29%
Cc1cc(C)cc(N(CC(=O)NCc2ccc(F)cc2)C(=O)c2snc(C(N)=O)c2N)c1	?	?	·	3%
CN(C)S(=O)(=O)c1ccc(NC(=O)C2CC3C=CC2C3)cc1 (configuration not stated)	?	3%	-7	-20%
Cc1ccc(N(CC(=O)NC2CCCCC2)S(=O)(=O)c2c(C)nn(C)c2C)cc1	2.1%	5%	·	0%
Cn1c(-c2ccc(F)cc2)cnc1NCc1ccccc1F	1.5%	7%	·	-33%
CCOC(=O)NC(=O)/C(N=Nc1cc(C)cc(C)c1)=C(\C)O	-0.4%	-18%	0	-16%
Cn1cc(S(=O)(=O)Nc2ccc3c(c2)OCCO3)cn1	-2.4%	12%	-10	-18%
COc1ccc(C2C(C#N)=C(N)N(c3cccnc3)C3=C2C(=O)CC(C)(C)C3)cc1OC (configuration not stated)	?	?	6	2%
CSCCC(NC(=O)COc1ccccc1)C(=O)NCC1COc2ccccc2O1 (configuration not stated)	5.8%	11%	·	3%
S=C(Nc1ccccc1Cl)Nc1ccc(Cl)cc1Cl	4.3%	1%	12	0%
Going on with the list.
SMILES	Rango-impB inh	Rango dissoc inh	GLA inh pH 4.5	miR-21 FLuc
FC(F)(F)c1cc(CCN2C(=S)NC[C@@H]2c2ccccc2)cc(C(F)(F)F)c1	-0.1%	-4%	?	-3%
CC1=C(C(=O)NC(C)c2ccc3c(c2)OCCO3)C2(CCC(C)CC2)OC1=O (configuration not stated)	1.6%	7%	-30	-8%
CCN(CC)C(C)C(=O)Nc1c2c(cc3c1CCC3)CCC2 (configuration not stated)	0.0%	7%	-1	-2%
CC(C)CN(CC(C)C)c1ccc(/C=N/n2cnnc2)cc1[N+](=O)[O-]	-3.5%	-6%	-20	-1%
COc1ccc(CN2CCNC(=O)C2CC(=O)N(C)Cc2nonc2C)c(F)c1 (configuration not stated)	0.9%	-18%	·	-1%
COc1ccc(/C=C/C(=O)Oc2ccc(/C=N/NC(=O)c3ccncc3)cc2)cc1	-1.6%	13%	·	-2%
CN(C)c1ccc(C(C(=O)NC2CCCC2)N(C(=O)c2csnn2)C2CC2)cc1 (configuration not stated)	0.3%	5%	·	-3%
Cc1ccnc(N2CCN(c3cc(C)c(C#N)c4nc5ccccc5n34)CC2)c1	?	?	·	·
O=S(=O)(Nc1cccc2c1CCCC2)c1cccc(C(F)(F)F)c1	5.8%	0%	-1	4%
O=C1C2C3CCCC3=C3CCCC3C2C(=O)N1c1ccccc1 (configuration not stated)	-0.3%	2%	4	-1%
CCCCCCc1cc2cc(C(=O)Nc3ccccc3)c(=O)oc2cc1O	?	?	-1	-11%
O=C(c1cc(-c2ccncc2)nc2ccccc12)N1CCN(c2ccc(N3CCOCC3)nn2)CC1	0.3%	-7%	4	-2%
Cc1ccc2nc(SCC(=O)Nc3cccc(Cl)c3)nc(=O)n2c1	4.0%	-9%	·	·
CN(c1ccc(OCC(=O)Nc2nc3ccccc3s2)cc1)S(=O)(=O)c1ccccc1	-1.7%	17%	-4	-9%
COc1cccc(NC(=O)CN(c2cccc(C(F)(F)F)c2)S(C)(=O)=O)c1	-1.9%	-14%	-11	-2%
COc1cc2c(cc1NC(=O)CSc1nc3ccc(C)cc3[nH]1)oc1ccccc12	·	·	-5	2%
Cc1ccc2c(c1)NC(=O)C(CC(=O)O)O2 (configuration not stated)	2.6%	-16%	0	1%
Cc1onc(-c2ccccc2)c1-c1csc(COc2ccccc2)n1	7.5%	-7%	-5	10%
O=C(c1cccc(F)c1)N1CCCC(C(=O)N2CCN(c3ccccc3)CC2)C1 (configuration not stated)	0.0%	?	4	2%
C=CCn1c(SCC(=O)NCCOC)nnc1-c1cc2c(s1)CCC(CC)C2 (configuration not stated)	6.0%	4%	5	-15%
COc1ccc(C(=O)OCC(=O)c2ccc(C3CCCCC3)cc2)cc1	-0.5%	6%	-5	-8%
Nc1nc(-c2ccc(Cl)cc2)nn1C(=O)c1cccnc1	-2.9%	7%	-5	-30%
COc1ccc(C=C2SC(=S)NC2=O)c(OC)c1OC	0.7%	?	·	·
Cc1noc(C)c1COc1cccc(C(=O)Nc2ccccc2N2CCOCC2)c1	0.1%	9%	3	0%
CN(C)S(=O)(=O)c1ccc(NC(=O)CCNC(=O)c2ccco2)cc1	-1.6%	23%	·	0%

4 consecutive entries out of the list so far, quoted:
SMILES	Rango-impB inh	Rango dissoc inh	GLA inh pH 4.5	miR-21 FLuc
Cc1cc(NCCN2CCCCC2)n2c(nc3ccccc32)c1C#N	·	·	17	-10%
CCN(CC(=O)NCc1cccs1)C(=O)Cc1ccc(Cl)c(Cl)c1	0.2%	8%	·	·
O=C(c1ccco1)N1CCN(C(c2ccccc2Cl)c2nnnn2Cc2ccco2)CC1 (configuration not stated)	2.0%	-13%	-5	6%
O=C(CN1CCOCC1)Nc1ccc2c(c1)OC(F)(F)O2	-0.1%	-15%	-6	-3%

Shown with two lines to a compound: three of the compounds above
Order of values: Rango-impB inh | Rango dissoc inh | GLA inh pH 4.5 | miR-21 FLuc
Cc1ccc2nc(SCC(=O)Nc3cccc(Cl)c3)nc(=O)n2c1
    4.0% | -9% | · | ·
CN(c1ccc(OCC(=O)Nc2nc3ccccc3s2)cc1)S(=O)(=O)c1ccccc1
    -1.7% | 17% | -4 | -9%
COc1cccc(NC(=O)CN(c2cccc(C(F)(F)F)c2)S(C)(=O)=O)c1
    -1.9% | -14% | -11 | -2%

(cont.)
SMILES	Rango-impB inh	Rango dissoc inh	GLA inh pH 4.5	miR-21 FLuc
Cc1cccc(Cn2nc(C(C)(C)C)cc2C(=O)N2CCOCC2)c1	0.0%	9%	·	-2%
CN(C)C(CNC(=O)C1CCN(S(=O)(=O)c2cccc(C(F)(F)F)c2)CC1)c1ccccc1 (configuration not stated)	-0.2%	11%	·	-5%
c1ccc2c(c1)CC1(CCCCC1)n1nnnc1-2	-8.3%	-10%	-6	-3%
CC(C)NCC(O)COc1c(F)cc(Br)cc1F (configuration not stated)	0.7%	1%	3	-5%
Cc1c(Cl)cccc1NC(=O)CNC(=O)c1ccc2c(c1)OCCO2	-0.4%	29%	·	·
COc1ccc(C(=O)CSc2nnc3ccccn23)cc1OC	1.3%	5%	1	-16%
O=C(c1cc(F)c(F)cc1Cl)N1CCN(c2ccc([N+](=O)[O-])c3ncccc23)CC1	-0.1%	-4%	-10	-3%
O=C(NC12CC3CC(CC(C3)C1)C2)C1=COCCO1	-3.7%	-6%	-3	-12%
CCCCOc1ccc(N(CC(=O)NC(C)C)C(=O)CCC(=O)Nc2ccccn2)cc1	-0.7%	-3%	2	-12%
O=C(Cc1ccc(Cl)cc1)NCC(=O)N1CCN(Cc2ccccc2)CC1	-2.2%	0%	·	22%
O=C(NN=C1CCCCC1)c1cc(-c2ccccc2)n[nH]1	1.2%	20%	2	-12%
CCc1nnc(NC(=O)CCC(=O)N2CCN(c3ccccn3)CC2)s1	-0.5%	2%	7	-3%
CCOC(=O)c1c(NS(=O)(=O)c2cccc(OC)c2)sc2c1CCC2	?	?	-3	3%
COC(=O)C1=C(c2ccc(OC)cc2)OC(=O)C1(C)C	2.1%	3%	·	-1%
Cc1ccc(S(=O)(=O)N2CCN(C(=O)CC(C)(C)C)CC2)cc1	-1.0%	-23%	3	-1%
CCN(CC)C(=O)[C@H]1CC(CC(=O)NCCCN(C)C)C(=O)N2CCc3c([nH]c4ccc(OC)cc34)[C@]12C (some centres not stated)	4.6%	3%	·	·
COc1ccccc1-c1c(C(F)(F)F)oc2c(CN(C)C)c(O)ccc2c1=O	0.4%	4%	·	1%
CCC1Sc2ccc(S(=O)(=O)N3CCN(c4ccccc4)CC3)cc2NC1=O (configuration not stated)	3.8%	9%	·	0%
Cc1cc(Cl)c(S(=O)(=O)Nc2ccc(Cl)cn2)cc1OCC(N)=O	-1.9%	-4%	-7	-6%
COc1ccc(OCCN2CCN(C(=O)c3ccc(OC)cc3)CC2)cc1	-1.7%	-3%	·	15%
Cc1nc(C)c(C(=O)NCCC(c2ccccc2)c2ccccc2)o1	-1.6%	-10%	3	20%
Cn1cc(S(=O)(=O)Nc2ccc(F)cc2F)c(=O)n(C)c1=O	1.1%	4%	2	0%
CCOC(=O)N1CCC(NC(=O)c2cc(C)c3c(C)nn(-c4ccccc4)c3n2)CC1	-5.4%	14%	17	-2%
Cc1cc(NC(=O)C(C)Sc2nnc(NCc3ccco3)s2)no1 (configuration not stated)	1.4%	13%	·	·
Cc1cc(C)n(CC2CC(=O)N(c3ccc(F)c(Cl)c3)C2=O)n1 (configuration not stated)	2.2%	2%	-5	1%
Going on with the list.
SMILES	Rango-impB inh	Rango dissoc inh	GLA inh pH 4.5	miR-21 FLuc
CNCc1sccc1C	-1.5%	-4%	-3	0%
CCOc1ccc2cc(/C=C/C(=O)c3ccco3)c(Cl)nc2c1	?	8%	4	-13%
CCOc1ccc(S(=O)(=O)N2CCN(Cc3ccccc3)CC2)c2cccnc12	-1.9%	-15%	2	-4%
O=C(COc1ccc2ccccc2c1)NC1CC1	0.0%	18%	0	-47%
O=C(C1=C(O)C(=O)N(CCN2CCOCC2)C1c1cccc(Br)c1)c1cc2ccccc2o1 (configuration not stated)	-0.5%	-5%	·	-3%
O=C(COC(=O)CNC(=O)c1cccs1)Nc1ccccc1C(F)(F)F	?	-16%	5	-3%
Cn1c(CCC(=O)Nc2ccc(N3CCOCC3)cc2)nc(=O)c2ccccc21	-3.7%	-17%	-4	-12%
COc1cc(NC2c3ccccc3C(=O)N2c2ccc(C)cn2)cc(OC)c1OC (configuration not stated)	-0.8%	-9%	3	-52%
C[C@H]1COC(=O)[C@H](Cc2ccc(F)cc2)C/C=C\C[C@@H](CC(=O)NCCO)C(=O)N1	-0.5%	-9%	·	·
CCCSc1nc(C)cc(C)c1C(N)=O	-1.2%	0%	4	-2%
COc1ccc(CC(=O)Nc2cc(C)on2)cc1	-0.4%	4%	2	-13%
Cc1cccc(C)c1Nc1nnc(SCC(=O)Nc2ncc(C(F)(F)F)cc2Cl)s1	1.3%	-22%	-11	-6%
Cc1ccc(NC(=O)CCNS(=O)(=O)c2cccs2)cc1F	0.7%	8%	·	-16%&-27%
CN1CCc2c(sc3nc(NCCO)n(-c4cccc(Cl)c4)c(=O)c23)C1	?	?	·	-3%
COc1ccc(C(=O)N/N=C\c2ccoc2)cc1	0.0%	-14%	·	-23%

An excerpt (hit frequency here may not be typical).
